# High-throughput results: PubChem BioAssay, ICCB-Longwood Screening Facility, Harvard Medical School
# AID504770: E. coli YBA685 growth inhibition, screen for V. cholerae RctB inhibitors; E. coli YBA685 rctB-dependent plasmid, OD600 growth, 3 h; active compounds read low; z-score (no concentration beside the values); actives 0.27% (n = 130,000); AID 504770;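 active means z-score under -2 on both plates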;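 further: wells of about 30 µL received 100 nL stock; score is relative to mean and SD of the test wells; the first replicate is given; strong numbers were not always called active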
# Ba CapD inh: inhibitors of Bacillus anthracis CapD enzyme; z-score (no concentration beside the values); actives 0.23% (n = 140,000); purified CapD enzyme, fluorescence intensity read-out; active compounds read low; some hits fall short of the stated cut;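 active means z-score under -4 in either of two replicates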;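 further: stock transfer was 100 nL into about 40 µL; score is relative to mean and spread of the plate; one replicate is shown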
# * = called active by the depositor; i = inactive; / = no result given.
# Start of the data: the first 4 records, to show the layout:
SMILES,AID504770,Ba CapD inh
Cc1ccc(S(=O)(=O)NCc2ccccc2)cc1C(=O)N1CCCCCC1,1.4,0.035
Cc1csc(NC(=O)Cn2cnc3c2c(=O)n(C)c(=O)n3C)n1,1.1,-0.07
Cc1nc(Oc2ccc(Cl)cc2)c(C(=O)O)c(C)c1Cl,1.4,0.07
Cc1n[nH]c(C)c1Cc1c(Cl)cccc1Cl,0.95,1.2

# Main list (from the top)
SMILES,AID504770,Ba CapD inh
Cc1ccc(S(=O)(=O)NCc2ccccc2)cc1C(=O)N1CCCCCC1,1.4,0.035
Cc1csc(NC(=O)Cn2cnc3c2c(=O)n(C)c(=O)n3C)n1,1.1,-0.07
Cc1nc(Oc2ccc(Cl)cc2)c(C(=O)O)c(C)c1Cl,1.4,0.07
Cc1n[nH]c(C)c1Cc1c(Cl)cccc1Cl,0.95,1.2
N#Cc1c(N)c(C(=O)c2ccccc2)n2ccccc12,0.8,/
CC(C)C(=O)Nc1nnc(-c2ccc(Cl)cc2)s1,0.15,i
CCCCCCCCCCC(=O)OC1CCC2(C)C(=CCC3C2CCC2(C)C(C(C)CCCC(C)C)CCC32)C1 (centres undefined),/,0.21
O/N=c1/sc2ccccc2n1CCS,-0.3,0.07
COc1ccc(N2CCN(C(=O)CSc3nc4ccccc4[nH]3)CC2)cc1,/,-0.49
N#Cc1c(-c2ccc(Cl)cc2)cc(-c2ccc(Cl)c(Cl)c2)[nH]c1=O,/,0.53

# Complete entries, looked up by structure:
# CC(C)C(=O)Nc1nnc(-c2ccc(Cl)cc2)s1 is entered as AID504770 = 0.15; Ba CapD inh = i
# N#Cc1c(N)c(C(=O)c2ccccc2)n2ccccc12 is entered as AID504770 = 0.8; Ba CapD inh = /
# CCCCCCCCCCC(=O)OC1CCC2(C)C(=CCC3C2CCC2(C)C(C(C)CCCC(C)C)CCC32)C1 (centres undefined) is entered as AID504770 = /; Ba CapD inh = 0.21

# Continuation:
SMILES,AID504770,Ba CapD inh
FC(F)(F)c1ccc(NCCNc2ccc(C(F)(F)F)cn2)nc1,-0.55,2.4
Cc1ccc(CC(=O)NC2CCSC2=O)cc1 (centres undefined),0.95,/
COc1ccc(/C=C2/SC(=S)N(c3c(C)n(C)n(-c4ccccc4)c3=O)C2=O)c(C(=O)O)c1OC,/,-3.4
O=S(=O)(/N=S1/CCC2(C1)OCCO2)c1cc(C(F)(F)F)cc(C(F)(F)F)c1 (centres undefined),-0.6,-0.17
Nc1c(C(=O)NCc2cccs2)c2nc3ccccc3nc2n1-c1ccc2c(c1)OCO2,0.1,/
O=C(c1ccc2cc[nH]c2c1)N1CCN(C(=S)NCc2ccc(Cl)cc2)CC1,/,-0.41
CC(=O)Nc1ccc(N/C=C/C(=O)c2ccco2)cc1,1.9,-5.8*
CCCC(c1nnnn1CCC(C)C)N1CCC(C(N)=O)CC1 (centres undefined),-0.35,/
Cc1nc2sccn2c(=O)c1S(=O)(=O)N1CCc2ccccc2C1,-0.85,8.5
CC(CN(C)Cc1ccccc1)OC(=O)c1cccc(F)c1 (centres undefined),-0.15,/

# In a second layout: three of the compounds above
# Values run as follows: AID504770, Ba CapD inh
CCCC(c1nnnn1CCC(C)C)N1CCC(C(N)=O)CC1 (centres undefined)
  -0.35, /
Cc1nc2sccn2c(=O)c1S(=O)(=O)N1CCc2ccccc2C1
  -0.85, 8.5
CC(CN(C)Cc1ccccc1)OC(=O)c1cccc(F)c1 (centres undefined)
  -0.15, /

# Next results follow:
SMILES,AID504770,Ba CapD inh
CCCc1n[nH]c2c1/C(=N\OCC)CC(C)(C)C2,-0.7,0.19
CCOC(=O)c1sc2nc(C)nc(N3CCCCC3CC)c2c1C (centres undefined),/,3.5
c1ccc(-c2noc(NC3CCCC3)n2)cc1,-0.4,-0.08
O=C(O)COCC1CCCO1 (centres undefined),2,/
NC(=O)c1oc2ccccc2c1NC(=O)C1CC(=O)N(c2ccc(F)cc2)C1 (centres undefined),0.8,/
O=C1c2ccccc2C(=O)N1CSc1ccccc1,1.6,/
O=C(CCc1ccccc1)N/N=C/c1cccc(O)c1,0.4,/
CCS(=O)(=O)c1ncc(Cl)c(C(=O)NCCc2ccc(OC)c(OC)c2)n1,0.3,0.71
Cc1ccc(N=C2NC(=O)CC(C(=O)O)S2)cc1 (centres undefined),-0.25,-0.08
Cc1onc(-c2c(Cl)cccc2Cl)c1COC(=O)NNC(=O)CNS(=O)(=O)c1cccc2nsnc12,/,-0.055
Nc1c(N(C(=O)CC2OC(=O)c3ccccc32)C2CCCC2)c(=O)[nH]c(=O)n1Cc1ccccc1 (centres undefined),-0.2,/
O=C1/C(=C\c2cccs2)SC(=S)N1CC1CCCO1 (centres undefined),-0.05,0.05
Cn1/c(=N/NC(=O)C2=NN(c3ccccc3)C(=O)CC2)sc2ccccc21,2.3,/
CCCCC1=NN(C(=O)c2ccc(Br)cc2)C(O)(C(F)(F)F)C1 (centres undefined),/,-0.4
CN1CCN(/N=C/c2sc(Nc3ccccc3)nc2Cl)CC1,0.15,/
Cc1cc(C)nc(N(C)c2ccc(N)cc2)n1,/,-0.39
CCC(C(=O)Nc1cccc(NC(C)=O)c1)c1ccccc1 (centres undefined),0.4,0.31
C=CCn1c(SCCC(=O)NCc2ccc3c(c2)OCO3)nc2scc(-c3ccco3)c2c1=O,0.15,2.3
O=C1NC(c2ccccc2)Nc2c1sc(=S)n2-c1ccccc1 (centres undefined),-0.3,-0.55
CS(=O)(=O)c1ccc(-n2cc(-c3ccccn3)cn2)cc1,/,1.2
O=C(OCn1nnc2ccccc2c1=O)C1CCN(S(=O)(=O)c2cccs2)CC1,0.25,/
O=C1c2ccccc2C(=O)c2c1ncn2-c1ccccc1,-0.65,-0.32
Cc1cc(C)cc(OCC(=O)OCc2nnc(-c3ccccc3)o2)c1,-0.2,/
O=C(CCSc1cccs1)Nc1cccnc1,-0.65,0.46
Cc1cc(N2CCC(C(=O)NC3CC3)CC2)n2nc(C)c(-c3ccc(Cl)cc3)c2n1,-1.4,10
CCN(C(=O)c1cc2c(C)nc3ccccc3c2o1)c1cccc(Cl)c1,2,-1.6
c1cc(CN2CCC(N3CCCCC3)CC2)ccn1,-0.55,-0.13
O=c1c2ccccc2nnn1CSc1nnc(CN2CCCC2)n1Cc1ccccc1,0,/
CCOC(=O)N1CCN(S(=O)(=O)c2cccs2)CC1,-0.2,-0.13
CN(C(=O)c1ccc(Br)o1)C1CCS(=O)(=O)C1 (centres undefined),-0.65,-0.38
CCOC(=O)c1c(S(=O)(=O)Nc2ccc(OC)c(Cl)c2)c(C)n(C)c1C,-0.15,0.91
O=C(CSc1ncnc2c1oc1ccccc12)Nc1cccc2ccccc12,-0.25,/
CCCCOc1ccc(C2C(N3C(=O)c4ccccc4C3=O)C(=O)N2c2cc(C)cc(C)c2)cc1 (centres undefined),/,-0.19
CCOc1ccc2sc(C=NCc3ccc(F)cc3)c(O)c2c1,/,-1.2
CC(C)(O)CNC(=O)C(Cc1ccccc1)N1C(=O)c2ccccc2C1=O (centres undefined),0.75,/
Cc1cc(OCC(=O)c2cc(C)n(-c3nccs3)c2C)ccc1Cl,-0.35,/
CCOC(=O)c1csc(N2CCc3ccccc32)n1,0.8,0.2
CCOc1ncccc1C(=O)OCc1ccc(Cl)cc1,0.15,/
Cc1onc(-c2ccccc2)c1NC(=O)Nc1ccc(OC(F)F)cc1,0.15,-1.5
CC(CC(=O)N1CCN(c2ccc(F)cc2)CC1)CC1=NS(=O)(=O)c2ccccc2N1 (centres undefined),1.5,0.35
CCOC(=O)c1nc(N2CCN(c3ccccc3)CC2)c2ccccc2n1,/,-0.23
CN(C(=O)c1ncn[nH]1)c1ccccc1,0.2,0.02
Cc1nc(-c2cccs2)sc1C(=O)Nc1ccccc1,-0.65,/
OCCSc1ccc(Oc2ccc(SCCO)cc2)cc1,-0.3,0.15
COc1cc(OC)nc(-c2ccc(NC(=O)C(C)(C)C)cc2)n1,/,0.51
Cc1sc(-c2cccs2)nc1O,-0.2,-0.49
FC(F)(F)c1cccc(C2N(Cc3ccc(Cl)cc3)CCN2Cc2ccc(Cl)cc2)c1,/,-0.56
Cc1nc(SCC(=O)Nc2cccc(C(F)(F)F)c2)[nH]c(=O)c1C,-0.5,/
CN1C(=O)CSc2ccc(NC(=O)NCc3ccccc3)cc21,-0.05,-0.08
O=C(Nc1cccc(C(F)(F)F)c1)N1CCC(CN2CCc3ccccc3C2)CC1,-0.05,0.09
# Continued:
SMILES,AID504770,Ba CapD inh
CC1=C(C(=O)Nc2ccccc2)C(c2ccccc2Cl)C(C#N)=C(SCC(N)=O)N1 (centres undefined),-0.6,0.89
COc1ccc(CC2c3cc(OC)c(OC)cc3CCN2C)cc1OC (centres undefined),/,-0.27
O=S(=O)(/C=C/c1ccccc1)N1CCN(c2ccc(S(=O)(=O)N3CCCCC3)cn2)CC1,2.5,/
CC(O)Cc1nnc(SCc2nnc(-c3ccccc3)o2)n1-c1ccccc1 (centres undefined),-0.3,0.065
Cc1ccc(Cl)cc1N1C(=O)C(N2C(=O)c3cccc([N+](=O)[O-])c3C2=O)C1c1cccs1 (centres undefined),/,0.34
CC(=O)Nc1nnc(SCC(=O)c2ccccc2)s1,-0.3,-0.58
Cc1c(OCC#N)ccc2c3c(c(=O)oc12)CCC3,-0.7,2.5
N#CC1=C(N)Oc2n[nH]c(-c3ccccc3)c2C1c1ccc(F)c(Br)c1 (centres undefined),/,-0.15
N#CC1=C([S-])N[C@@](O)(c2ccccc2)[C@H]([n+]2ccc3ccccc3c2)[C@H]1c1ccc(Cl)c(Cl)c1,/,5.7
Cc1ncc(CO)c2cc(-c3nnc(Nc4cc(C(F)(F)F)ccc4Cl)s3)c(=O)oc12,-1.1,-0.57
CCOC(=O)Cc1csc(NC(=O)C2CCCCC2C(=O)O)n1 (centres undefined),-1,-0.045
CC(C)N(C(=O)CSc1nc2ccccc2n1C)c1ccccc1,-0.95,-0.61
CCn1cc(C(=O)N2CCOCC2)c(=O)c2cc(S(=O)(=O)N(C)C)ccc21,-1.2,-0.52
O=C(O)CNC(=O)C(O)(c1ccccc1)c1ccccc1,-0.55,0.05
CCO/N=C(\C(=N/OCC)c1ccccc1)c1ccccc1,/,-0.25
COc1cc(OC)cc(-c2nnc(SCC(=O)N3CCc4ccccc43)o2)c1,0.15,0.07
CCN1CCCC1CNc1nc2ccc(C(=O)c3ccccc3)cc2n2cnnc12 (centres undefined),1.1,-1.6
COc1cccc(-n2nc(-c3ccnn3-c3ccccc3)c(=O)n(C)c2=O)c1,/,27
COc1nnc(-c2ccc(C)c(S(=O)(=O)NCc3cccnc3)c2)c2ccccc12,0.65,0.11
COc1cc(C2OCC3(CO)C(C)C=C(C)C2C3C)ccc1O (centres undefined),/,-0.03
CN(C)c1ccc(C(=O)N2CCc3ccccc32)cc1,1.5,-0.84
CCN(CC)S(=O)(=O)c1ccc(NC(=O)Nc2ccc(F)cc2)cc1,0,-0.4
NC(=O)CSc1ccc(C(F)(F)F)cn1,/,0.36
CCOC(=O)c1cc2c(=O)[nH]ccc2nc1C(F)(F)F,-0.15,28
Cc1occc(=O)c1OC(=O)c1ccco1,2,/
O=C(O)c1ccc2c(c1)-c1nc3ccccc3n1C2=O,0.45,1.4
O=C(NCC(c1cccs1)N1CCOCC1)c1ccccc1C(=O)NCC(c1cccs1)N1CCOCC1 (centres undefined),0.25,/
O=c1cc(O)c2sc(SCc3ccncc3)nc2[nH]1,0.3,/
Fc1ccccc1CSC1=NCCN1,0.2,/
C=CCNCC1OCc2ccccc2CO1,0.3,-0.025
COc1ccc2nc(Nc3nc(-c4ccccc4)cc(=O)[nH]3)nc(C)c2c1,/,-0.02
CCOC(=O)c1ccc(N2C(=O)c3ccccc3NC2c2ccc(OCC)cc2)cc1 (centres undefined),/,67
CC(O)CNC(=O)c1ccc2n[nH]nc2c1 (centres undefined),/,-0.29
Cc1nnc(SCC(=O)Nc2ccc(F)cc2)o1,-1.4,-0.12
CC(=O)Nc1ccc(NC(=O)C2CCCN2S(=O)(=O)c2cccc3nsnc23)cc1 (centres undefined),-0.8,0.015
O=C(CCCn1ncn2c(cc3occc32)c1=O)NC1CCCc2ccccc21 (centres undefined),0.65,-0.87
CC1CCC(Br)(C(C)C)C(=O)/C1=C/c1ccc(Br)cc1 (centres undefined),/,-0.47
CN(C)c1cc(C(=O)Nc2ccccc2)nc(N(C)C)n1,/,12
O=c1oc2ccccc2cc1-c1ccn[nH]1,0.1,0.08
O=C(O)Cc1cncc(Br)c1,0.65,0.63
CCC1(C)CC(CCNCc2ccc(OC)cc2)(c2ccc(OC)cc2)CCO1 (centres undefined),/,-0.41
CN1CCN(C(=S)C(=O)Nc2ccccc2)CC1,0.15,-0.06
Cc1cc(C)c2c(N)c(C(=O)c3ccccc3Cl)sc2n1,/,0.65
COc1cc2c(cc1OC)C(c1cccnc1)N(C(C)=O)CC2 (centres undefined),0,0.66
CC(Sc1ncnc2ccccc12)C(=O)Nc1cccc(C(F)(F)F)c1 (centres undefined),0.7,-0.95
Cn1c(CNC(=O)c2ccccc2)nnc1SCc1ccccc1,-0.55,-0.075
CC(=O)OC[C@H](OC(C)=O)[C@H](OC(C)=O)[C@@H](OC(C)=O)[C@H](OC(C)=O)C(N)=O,/,0.52
NCCCCN,/,0.57
O=C(CN1CCN(Cc2ccccc2)CC1)N/N=C\c1ccccc1,-0.6,0.2
COc1cc(OC)cc(-c2nnc(SCc3cccc(S(=O)(=O)N(C)C)c3)o2)c1,-0.4,/
C=CCn1c(SCC)nc(O)cc1=O,-0.9,-0.35
O=C(CCc1nc(-c2ccccc2)no1)OCc1c(Cl)cccc1Cl,0.35,/
